# Bioassay records (PubChem)
# LANA-H2B inh – blocks KSHV LANA binding to histone H2A/H2B | cell-free LANA-H2A/H2B peptide, fluorescence polarization | Q9QR71 | 320,000 compounds, 0.6% hits | inhibition, % (concentration not given with the values); in the data active = inhibition mostly above about 10%, no sharp cut-off; inactive = mostly below about 6.7%;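 also: stock transfer was 7.5 nL into about 10 µL; 0% = median of vehicle wells and 100% = median of positive control wells; one replicate is shown; the record names a cut of 25% in any replicate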
# Target sequence (Q9QR71 whole entry, looked up): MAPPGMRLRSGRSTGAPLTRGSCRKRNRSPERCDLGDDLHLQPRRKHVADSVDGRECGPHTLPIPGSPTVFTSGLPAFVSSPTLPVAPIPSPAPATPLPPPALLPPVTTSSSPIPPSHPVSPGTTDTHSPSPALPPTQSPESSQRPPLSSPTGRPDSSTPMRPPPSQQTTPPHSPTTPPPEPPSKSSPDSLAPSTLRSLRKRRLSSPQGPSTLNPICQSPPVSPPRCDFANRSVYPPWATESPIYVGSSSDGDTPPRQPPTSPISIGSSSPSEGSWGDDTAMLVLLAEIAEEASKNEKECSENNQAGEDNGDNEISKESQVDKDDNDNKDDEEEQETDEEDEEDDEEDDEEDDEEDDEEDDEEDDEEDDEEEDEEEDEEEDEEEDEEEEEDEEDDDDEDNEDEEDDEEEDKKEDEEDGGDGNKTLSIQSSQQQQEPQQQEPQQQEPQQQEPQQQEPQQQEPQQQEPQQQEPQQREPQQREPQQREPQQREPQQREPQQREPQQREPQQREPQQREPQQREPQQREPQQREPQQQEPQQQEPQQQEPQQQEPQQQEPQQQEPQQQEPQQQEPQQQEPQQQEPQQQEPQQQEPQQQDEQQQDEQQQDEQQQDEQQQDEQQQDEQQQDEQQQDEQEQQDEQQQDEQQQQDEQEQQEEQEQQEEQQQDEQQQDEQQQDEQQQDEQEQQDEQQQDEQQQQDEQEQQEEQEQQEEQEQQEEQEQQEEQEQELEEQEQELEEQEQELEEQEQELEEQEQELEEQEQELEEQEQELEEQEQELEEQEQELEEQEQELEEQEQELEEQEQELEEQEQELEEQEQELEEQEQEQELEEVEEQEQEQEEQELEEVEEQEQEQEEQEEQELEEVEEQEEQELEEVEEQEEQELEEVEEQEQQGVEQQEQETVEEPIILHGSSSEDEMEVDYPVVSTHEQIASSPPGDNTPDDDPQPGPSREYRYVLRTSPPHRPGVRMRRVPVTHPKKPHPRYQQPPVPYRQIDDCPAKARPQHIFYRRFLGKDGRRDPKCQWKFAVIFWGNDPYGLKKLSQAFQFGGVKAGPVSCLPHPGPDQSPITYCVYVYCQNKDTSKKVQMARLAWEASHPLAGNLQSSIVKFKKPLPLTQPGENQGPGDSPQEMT
# RanGTP-Imp inh – disruptors of Ran-importin-beta complex formation – biochemical, FRET, CFP-Ran, YFP-importin-beta, homogeneous, primary screen | inhibition, % (test concentration not listed) | 300,000 compounds, 1.1% hits | cell-free CFP-Ran/YFP-importin-beta FRET ratio;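 active = most replicates above 15%; inconclusive = exactly half above 15%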;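 also: 0% = DMSO wells and 100% = Ran loaded with GDP instead of GTP; wells of about 40 µL received 100 nL stock; the first replicate is given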
# Beta cell apopt – blocks beta cell apoptosis; INS-1E cytokine-induced death, ATP luminescence, 48 h; percent of positive-control rescue, neutral wells zero; protection from apoptosis, % (concentration not given with the values); 300,000 compounds, 0.8% hits;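 active = all replicates at 75% or more, or half of them and the mean; inconclusive = half reach 75% but not the mean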;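 also: 0% = cytokine-treated negative control wells and 100% = positive control rescue; higher means more ATP so stronger rescue from cytokine killing; wells of about 40 µL received 100 nL stock; the first replicate is given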
# Calb FLC – C. albicans growth modulation with fluconazole; C. albicans CaCi-2 (fluconazole-resistant clinical isolate) + fluconazole, Alamar Blue growth, 48 h; growth inhibition, % (test concentration not listed); 300,000 compounds, 0.57% hits; AID 1979;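 active = most replicates above 75%; inconclusive = exactly half above 75%; inactive = most below 75%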;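 also: all wells also contain fluconazole at 8 µg/ml as a sub-toxic cotreatment; 0% = median of DMSO wells and 100% = median of geldanamycin control wells; wells of about 8 µL received 7.5 nL stock; the first replicate is given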
# A1 inh – inhibitors of the anti-apoptotic protein A1, read as caspase activation; MEF A1-2A-BIM cells, Caspase-Glo 3/7 luminescence, 3 h; percent of clofoctol response, vehicle zero; caspase activation, % (concentration not given with the values); 330,000 compounds, 0.066% hits;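 active = over half of replicate activation scores above 10%, or exactly half above 10 with the replicate mean above 10; inconclusive = replicate mean below 10 yet half the replicates above 10; inactive = over half of replicates below 10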;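 also: wells of about 30 µL received 50 nL stock; many hits fall short of the cut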
# Vif A3G – HIV-1 Vif–A3G interaction blockers – biochemical, TR-FRET, GST-Vif 1-94, biotin-A3G peptide, dose response retest, primary screen (AID 1117319); 260,000 compounds, 0.57% hits; TR-FRET GST-Vif / biotin-A3G peptide binding; higher % means a stronger effect; test concentration not given here; strong numbers were not always called active; inhibition, %; hits with a dose series show IC50 in µM;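 active = above the screen mean plus three standard deviations and confirmed in dose response; inconclusive = results disagree or hit not tested in dose response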;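 also: Vif residues 1-94 fused to GST binding biotinylated APOBEC3G peptide 110-148; 0% = full assay without inhibitor and 100% = GST in place of GST-Vif; retest series ran down from 100 µM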
# T cruzi inh – T. cruzi replication inhibition; inhibition, % (no concentration beside the values); 300,000 compounds, 1.4% hits; T. cruzi beta-gal in NIH3T3, luminescence, 90 h;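 active = mean inhibition across valid replicates above about 55%, limit read from the data; inconclusive = mean below that limit but half or more replicates reach it; inactive = mean below it, under half of replicates reach it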;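 also: signal also drops with host cell toxicity which is not excluded here; 0% = plate median of DMSO wells and 100% = zero luminescence signal; higher percent means less beta-gal luminescence so fewer parasites; stock transfer was 50 nL into about 50 µL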
# AF4-AF9 inh – MLL-AF4/AF9 protein interaction inhibition. AlphaScreen, biotin-AF4 peptide binding to FLAG-AF9. AID 651704. P42568. inhibition, % at 10 µM. 350,000 compounds, 0.47% hits;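 active = every replicate reaching a set inhibition limit, whatever the replicate mean, cut at about 25% in these data; inconclusive = mean inhibition reaches that limit but some replicates miss it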;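 also: 0% = plate neutral control median and 100% = total signal loss; the record names both 10 and 1 µM as test concentration; the first replicate is given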
# Numbers without * were called inactive; ? = inconclusive; / = not tested or not shown.
SMILES,LANA-H2B inh,RanGTP-Imp inh,Beta cell apopt,Calb FLC,A1 inh,Vif A3G,T cruzi inh,AF4-AF9 inh
CCC(=O)O[C@@H]1[C@@H](OC(C)=O)[C@@]2(O)C(C[C@H](O)C2(C)C)[C@](C)(O)[C@H]2CC[C@@H]3[C@@H](O)[C@]12C[C@@]3(C)O (some centres undefined),-0.5,-2.0,-1.7,8.2,0.6,?,-2.0,-0.9
CCOC(=O)c1c(C=O)c2ccccc2n1Cc1ccccc1F,-0.6,1.9,2.0,-1.6,-0.6,-1.0%,-13.5,-5.3
O=[N+]([O-])c1ccc(N2CCNCC2)c2ncccc12,/,-2.3,/,14.3,/,0.7%,14.7,/
COC1=C(OC)[C@]23CCc4ccc(OC)c(OC)c4[C@]2(CCN3C)CC1=O,4.1,/,-11.7,/,0.6,/,/,2.3
c1ccc2[nH]c(CCNC3CCCCC3)nc2c1,2.5,-0.6,-17.9,1.9,-0.7,0.9%,-3.6,/
CCc1cc2c(s1)NC(=O)CN=C2c1cccs1,0.8,-1.0,/,-2.9,-0.3,-2.3%,5.9,/
Cc1ccc(N(C)C(=O)Oc2cccc3cccnc23)cc1,1.9,0.5,-4.7,-3.3,2.2,-0.4%,-19.7,/
CC(=O)c1cn(Cc2ccccc2F)c2ccccc12,/,3.3,/,46.0,/,/,8.9,-3.4
CCOC(=O)C1C2NC(=O)N(Cc3ccccc3)C1(C)Oc1c(OC)cccc12 (centres undefined),-3.9,?,-0.1,-7.0,0.9,-1.0%,-19.6,/
CC1CN=C(Nc2ccc(N(C)C)cc2)S1 (centres undefined),-8.2,4.1,-0.2,0.8,-0.5,16.1%,25.4,/
COc1ccc(N2C(=O)CC(N3CC=C(c4ccccc4)CC3)C2=O)cc1 (centres undefined),-1.3,-0.3,-6.1,0.2,-1.7,5.0%,3.3,2.1
COCCCn1c(-c2ccc(OC)cc2)cc(C(=O)NC2CCCCCCC2)c1C,0.6,1.3,1.1,-4.2,-0.1,-4.5%,13.6,3.6
O=c1[nH]c(=O)n(-c2cccc(Cl)c2)c(O)c1C=NCCN1CCCCC1,-2.1,4.0,-2.4,0.5,0.2,-1.1%,-8.0,7.4
COc1ccc(-n2c(O)c(C=NCc3ccc4c(c3)OCO4)c(=O)[nH]c2=O)cc1,-1.3,-0.6,/,-5.1,1.1,-2.0%,-2.4,-4.3
O=C(Cc1ccccc1)N1CCN(C/C=C/c2ccccc2)CC1,-1.1,-0.4,-3.2,-5.6,0.1,1.3%,25.3,/
COCC(C)OC(=O)c1c(N)n(Cc2ccco2)c2nc3ccccc3nc12 (centres undefined),2.4,10.1,/,10.7,1.4,?,-2.2,/
CC(=O)c1cn(CCCOc2ccccc2)c2ccccc12,0.0,-0.1,30.2,-1.4,-0.3,?,-29.8,-15.3
CCOc1cc2c(cc1OCC)-n1cccc1C(c1ccc(C)cc1C)NC2 (centres undefined),-3.9,-1.5,6.7,-7.1,0.6,/,32.9,26.4*
CCOC(=O)Cn1cc([N+](=O)[O-])nc1[N+](=O)[O-],5.7,5.0,-14.3,-4.5,-1.7,6.3%,13.9,/
CC(C)C12CN3CCN(CC(C3)C1O)C2 (centres undefined),-2.3,?,-8.7,5.7,0.1,2.5%,-17.2,/
CN1C(=O)NC(=O)[C@]2(Cc3ccccc3N3CCN(c4ccccc4)CC32)C1=O (some centres undefined),-0.4,-1.2,-5.3,0.2,0.3,15.9%,-3.7,/
CC(C)COC(=O)c1ccccc1C(=O)OCC(C)C,-0.3,-2.2,-7.9,-2.2,-0.1,/,-1.8,-3.4
C[N+]1(C)C2CCC1CC(OC(=O)C(CO)c1ccccc1)C2 (centres undefined),-2.2,-4.3,-1.6,-6.9,1.4,-3.9%,-0.8,-5.9
CCOC(=O)C1(CCOc2ccccc2)CCN(C(C)CSC)CC1 (centres undefined),2.9,1.3,/,-5.0,-3.0,/,5.1,3.1

# Individual results from above:
# `CC(=O)c1cn(Cc2ccccc2F)c2ccccc12` in Calb FLC reads 46.0
# `COCCCn1c(-c2ccc(OC)cc2)cc(C(=O)NC2CCCCCCC2)c1C` in LANA-H2B inh reads 0.6

# (list continues)
SMILES,LANA-H2B inh,RanGTP-Imp inh,Beta cell apopt,Calb FLC,A1 inh,Vif A3G,T cruzi inh,AF4-AF9 inh
O=C1NC(=O)C(=Cc2ccc(-c3ccc(S(=O)(=O)N4CCOCC4)cc3)o2)C(=O)N1,3.3,0.9,-5.0,-3.2,-0.4,/,-3.5,2.2
CCC(C)n1c(C)cc(C(N)=O)c1C (centres undefined),-1.7,1.8,-3.5,-6.4,-0.7,4.3%,-16.9,-1.8
O=C1/C(=C/c2ccc3c(c2)OCO3)N2CCC1CC2,-4.0,0.6,-0.8,-7.4,0.0,?,2.2,1.1
O=c1c2ccccc2nc(-c2ccco2)n1-c1ccc(Br)cc1,-0.9,?,-0.4,-1.2,1.4,8.9%,20.8,2.7
CCn1c(=O)cc(OCC(=O)N2CCN(Cc3ccc4c(c3)OCO4)CC2)c2ccccc21,-8.2,-0.7,0.7,-14.3,1.4,3.7%,16.3,/
O=C(CN1CC(c2ccccc2)CC1=O)Nc1ccc(F)cc1 (centres undefined),-4.9,4.2,-2.1,-2.0,1.9,28.5%,2.1,-3.3
Cc1nn(Cc2ccccc2)c(Cl)c1C(=O)NC1CCCc2ccccc21 (centres undefined),-0.9,?,4.9,9.3,0.0,/,-0.1,-2.6
COc1ccccc1N(CC(=O)NC1CCCC1)C(=O)c1cnn(C(C)C)c1,-4.4,2.4,-2.1,6.1,0.2,-7.6%,3.9,/
COc1ccc(-c2cc(-c3ccccc3)[n+](C)c(-c3ccccc3)c2)cc1,1.9,-1.9,109.3*,102.7*,0.8,-2.5%,55.2*,1.4
CCOc1ccc(Br)c(C2(O)CC(C)N(C)CC2C)c1 (centres undefined),2.7,0.7,4.4,0.8,0.6,-1.4%,-2.1,/
Cc1cc(C)c(C(=O)CN2CCOCC2)c(C)c1,-5.6,-3.5,-3.1,-6.1,0.7,3.2%,-11.8,/
COc1cc2[nH]c(=O)n(-c3ccc(C)cc3)c(=O)c2cc1OC,/,8.3,/,-5.7,/,18.5%,-4.5,/
CC(=O)N1CC(=O)Nc2ccc(C)cc2C1c1ccccc1 (centres undefined),-9.3,-0.2,-1.4,-10.5,0.1,3.2%,-0.7,-3.3
CCOP(=O)(OCC)C1(O)C(=O)Nc2ccccc21 (centres undefined),2.4,-0.8,8.7,-6.5,0.4,-2.6%,-15.3,/
O=Cc1cn(Cc2ccccc2F)c2ccccc12,-3.2,-0.1,0.5,-4.9,-0.3,/,-12.2,-2.3
CCCNC(=O)N1[C@H]2CC[C@@H]1C(C(=O)OC)=C(c1cc3ccccc3s1)C2,-1.6,0.7,1.7,-2.0,1.3,/,-1.8,/
Cc1nn(Cc2ccccc2Cl)c(C)c1C(=O)NC1CCCc2ccccc21 (centres undefined),-2.0,5.5,6.2,1.1,-0.1,26.5%,-14.1,/
CSc1nnc([C@@H](N)Cc2ccccc2)o1,-6.9,?,-0.6,-8.0,-0.4,-1.7%,-3.9,/
O=C(CCCOc1ccc(Cl)cc1Cl)N1CCC2(CC1)OCCO2,1.0,2.9,-2.4,-0.6,-0.7,0.8%,-4.3,/
Cc1nc2ccccc2c(=O)n1-c1cccc([N+](=O)[O-])c1,3.9,-4.6,-5.0,0.1,0.4,/,-5.8,-0.8
c1cncc(C2CCCCN2)c1 (centres undefined),-0.7,-0.3,-0.6,8.1,0.5,9.4%,-17.9,2.1
CCc1ccc(/C=C(/C#N)C(N)=S)cc1,-2.8,3.6,-12.6,7.5,0.5,/,-0.2,/
CCOC(=O)C1CCN(/C=C2\C(=O)NC(=S)N(CC)C2=O)CC1,7.0,-2.5,-1.7,-9.1,-0.1,/,-16.4,-2.4
Cn1cnc(CCN)c1,-2.2,1.0,/,-9.6,-1.2,/,15.4,-2.3
COc1ccc(CN2C(=O)CC(=O)NC2=S)cc1,-0.2,1.3,1.6,1.0,0.3,-5.1%,-7.2,-0.6
COc1ccccc1Oc1c(C)oc2cc(OC(=O)N(C)C)ccc2c1=O,-0.9,-2.4,-4.0,-15.7,-1.4,-9.2%,0.2,2.9
c1cncc(C2CCCCN2Cc2ccc3c(c2)OCO3)c1 (centres undefined),3.1,4.0,-3.9,5.3,-1.1,7.6%,49.1,/
Cc1cc(OCC(=O)N2C[C@H]3C[C@@H](C2)c2cccc(=O)n2C3)c2c(C)c(C)c(=O)oc2c1,0.5,4.1,-3.3,-4.7,0.2,/,-16.5,0.4
CN1C(=O)C(Cc2ccc3c(c2)OCO3)C(=O)N(C)C1=O,-2.1,0.0,0.2,-0.3,0.5,24.4%,-16.6,/
CCC(=NC(C)c1ccccc1)c1c(O)[nH]c(=O)[nH]c1=O (centres undefined),-3.7,3.1,1.3,1.2,-0.7,-3.1%,-25.1,3.9
O=CC(Br)P(=O)(N1CCOCC1)N1CCOCC1 (centres undefined),3.8,6.6,-21.0,-14.9,-0.1,?,-22.7,-4.6
Cc1ccc(S(=O)(=O)N(c2cc(Cl)c(O)c(Cl)c2)P(=O)(OC(C)C)OC(C)C)cc1,0.2,-0.4,4.2,12.0,-0.2,-0.5%,-0.9,-1.6
COc1cc(C(=O)Nc2ccc(Br)cc2C(=O)c2ccccc2)cc(OC)c1OC,-0.2,-0.8,-2.8,-11.8,1.8,-2.9%,4.6,/
CCC(=Nc1ccc(OC)cc1OC)c1c(O)n(C2CCCCC2)c(=O)[nH]c1=O,0.3,-4.5,-7.9,23.7,-0.4,14.2%,23.4,/
O=c1cccc2n1CC1CC2CN(C(c2cccc(F)c2)c2sc3ncnn3c2O)C1 (centres undefined),4.3,0.2,-5.0,1.3,0.5,67.2%,-4.6,-2.1
CCC(=O)c1ccc(OCC(=O)N2CCN(CC(=O)Nc3ccccc3C(F)(F)F)CC2)cc1,-0.2,/,-0.6,/,-0.1,2.5%,/,-2.5
Cc1ccsc1/C=C1\C(=O)NC(=S)N(C)C1=O,2.0,3.7,1.0,2.7,0.2,-0.5%,-9.9,5.7
N#Cc1ccc(N2CCNCC2)c(F)c1,2.2,3.3,8.3,/,0.4,-9.5%,-7.0,/
CC(C)CN1CCN(Cc2c(F)cccc2Cl)CC1CCO (centres undefined),-1.3,2.8,1.8,-10.0,0.2,/,4.3,0.1
O=c1[nH]c(=O)n(Cc2ccco2)c(O)c1C=NC1CC1,-13.9,3.2,-0.6,-4.0,0.9,5.7%,5.3,/
CC(=O)Nc1ccc(C(=O)C(Cc2ccccc2)N(C)C)cc1 (centres undefined),-3.1,2.4,0.6,-8.0,0.4,-6.9%,7.2,-1.9
CCN(CC)CCCN=C(C)c1c(O)n(-c2ccccc2)c(=O)[nH]c1=O,-5.6,-4.0,-2.8,-10.0,?,4.9%,-8.0,/
COc1cccc(OCc2cc(C(=O)N3C[C@H]4C[C@@H](C3)c3cccc(=O)n3C4)no2)c1,/,-3.0,/,1.5,/,/,-18.3,2.4
COc1ccccc1N1CCN(Cc2ccccc2)CC1,-4.4,?,-0.8,-19.9,1.1,-6.6%,-14.5,4.7

# Not all compounds are listed; rates above refer to the full screens.
